IkB sig inh – IkB pathway inhibition in ABC-DLBCL cells; 0.04% of 110,000 active; AID 445; ABC-DLBCL IkBa-CBG/CBR dual luciferase ratio, 4 h; response scale: scaled: untreated 0%, proteasome inhibitor 100%; Potency, µM (series often up to 57.1 µM), inactives show at the top dose IkBa stabilization activation; active means well fitted curve in the direction sought with a large enough effect in the signal ratio, not every such curve was filed as active; inconclusive means small, poorly fitted or top-dose-only effect, or a change in a side signal; the % refers to the signal ratio;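 further: the direction sought is a rising ratio; 0% = basal untreated cells and 100% = reference inhibitor full response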
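Luminescence ratio of IκBα-fused green versus native red beetle luciferase in OCI-Ly3 cells, 4 h post-doxycycline with compound; red signal alone, scaled from basal (0%) to zero light (-100%), flagged nonspecific or cytotoxic effects.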
Imprint erasure – genomic imprint erasure induction | mouse ES Peg3-LacZ reporter, beta-gal luminescence, 40 h | Potency, µM (series often up to 60.7 µM), for inactives: at the top dose activity change, positive = activation, most hits filed as activators | 0.02% of 110,000 active | AID 1948; active means well fitted activation curve with a large enough effect; inconclusive means small, poorly fitted or top-dose-only effect; inactive means no such curve, though single readings can be large or run the other way;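 further: 0% = negative control wells on the plate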
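Readout: BetaGlo luminescence (5 min, room temp) for LacZ from the normally silent maternal Peg3 allele in female Peg3LacZ-Neo ES cells. Cells 300/well, 40 h, 37C, 5% CO2. Data normalized per plate to negative controls.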
Active calls of the source: *; ? = inconclusive; . = no result given; & = joins results of further samples; [ ] = dose if it differs, or a comment. Potency means the concentration at half of the fitted maximal effect. Only part of the results is shown; most or all hits stand in other tables.

| cpd | Structure | Imprint erasure | IkB sig inh |
| --- | --- | --- | --- |
| 1 | CC/C=C/C/C=C/C/C=C/CCCCCCCC(=O)OCC | -23% | 10% |
| 2 | CN1C2CCC1CC(OC(=O)C(CO)c1ccccc1)C2 (centres undefined) | -2%&-17%&10%&-6%&-7% | . |
| 3 | CCCc1cc(C(N)=O)c(NC(C)=O)s1 | -9% | -1.3% |
| 4 | CC1=C(/C=C/C(C)=C/C=C/C(C)=C\C=O)C(C)(C)CCC1 | -22% | ? |
| 5 | Cc1cnc(CNc2cc(-c3ccc(N(C)C)cc3)ncn2)cn1 | -10% | 1.3%[11.4 µM] |
| 6 | CN1Cc2c(N)cccc2[C@H](c2ccccc2)C1 | -10%[16.8 µM] | 0.6%[25.6 µM] |
| 7 | Cc1ccccc1Nc1nnc(SCC(=O)NCc2ccco2)s1 | -90%[inhibitor] | 1.4% |
| 8 | Cc1nc(-c2ccc(NC(=O)c3cccs3)cc2)cs1 | -83%[inhibitor] | ? |
| 9 | CC(C)CC1C(=O)N2CCCC2C2(O)O[C@@](NC(=O)C3C=C4c5cccc6[nH]c(Br)c(c56)CC4N(C)C3)(C(C)C)C(=O)N12 (some centres undefined) | -16% | . |
| 10 | Cc1cc(C(F)(F)F)nc(SCC(=O)NC2=NC(=O)C(C)S2)n1 (centres undefined) | 1% | -0.3% |
| 11 | N=C(N)N1CCc2ccccc2C1 | -6%[16.8 µM] | 0.2%[25.6 µM] |
| 12 | COC(C)=O | -2% | 0.1% |
| 13 | Cc1c(N(C)C)c(=O)n(-c2ccccc2)n1C | -1% | 1.9% |
| 14 | CCCNC[C@H](O)COc1ccccc1C(=O)CCc1ccccc1 | -14% | -0.8%[25.6 µM] |
| 15 | CN[C@@H]1[C@H](O[C@H]2[C@H](O[C@H]3[C@H](O)[C@@H](O)[C@H](N=C(N)N)[C@@H](O)[C@@H]3N=C(N)N)O[C@@H](C)[C@]2(O)C=O)O[C@@H](CO)[C@H](O)[C@H]1O | 4% | . |
| 16 | Nc1nc2ccc([N+](=O)[O-])cc2s1 | -17% | -0.5% |

Entries of single compounds, looked up by structure.
`COC(C)=O` across the screens: Imprint erasure = -2%; IkB sig inh = 0.1%
`N=C(N)N1CCc2ccccc2C1` across the screens: Imprint erasure = -6%[16.8 µM]; IkB sig inh = 0.2%[25.6 µM]

Further structures:
| cpd | Structure | Imprint erasure | IkB sig inh |
| --- | --- | --- | --- |
| 17 | CC1(C)O[C@@H]2C[C@H]3[C@H]4C[C@H](F)C5=CC(=O)C=C[C@@]5(C)[C@@H]4[C@H](O)C[C@]3(C)[C@]2(C(=O)CO)O1 | -7%[16.8 µM] | 8.5%[25.6 µM] |
| 18 | Cc1onc(-c2c(Cl)cccc2Cl)c1C(=O)N[C@H]1C(=O)N2[C@H]1SC(C)(C)[C@H]2C(=O)O | -1%[16.8 µM] | 1.5%[25.6 µM] |
| 19 | Oc1cc(Cl)cc(Cl)c1Cl | 5% | 13% |
| 20 | Cc1cccc(NC(=O)c2oc3ccc(S(=O)(=O)N4CCOCC4)cc3c2C)c1C | -17% | -0.6% |
| 21 | CCN(CC)CCOc1ccc2c(c1)C(=O)c1cc(OCCN(CC)CC)ccc1-2 | 5% | . |
| 22 | C[C@@](Cc1ccccc1)(NC(=O)CN)c1ccccc1 | -15% | 0.9% |
| 23 | c1ccc2scnc2c1 | -3% | 0.8% |
| 24 | CC(=O)OCC(=O)[C@@]1(O)CCC2C3CCC4=CC(=O)CC[C@]4(C)C3C(=O)C[C@]21C (some centres undefined) | -13% | . |
| 25 | O=C(O)[C@@H](O)[C@@H](O)[C@H](O)[C@H](O)CO | -2%[10.9 µM] | -0.3%[11.4 µM] |

Compounds above containing nitrogen in an aromatic ring (nine):
| cpd | Structure | Imprint erasure | IkB sig inh |
| --- | --- | --- | --- |
| 5 | Cc1cnc(CNc2cc(-c3ccc(N(C)C)cc3)ncn2)cn1 | -10% | 1.3%[11.4 µM] |
| 7 | Cc1ccccc1Nc1nnc(SCC(=O)NCc2ccco2)s1 | -90%[inhibitor] | 1.4% |
| 8 | Cc1nc(-c2ccc(NC(=O)c3cccs3)cc2)cs1 | -83%[inhibitor] | ? |
| 9 | CC(C)CC1C(=O)N2CCCC2C2(O)O[C@@](NC(=O)C3C=C4c5cccc6[nH]c(Br)c(c56)CC4N(C)C3)(C(C)C)C(=O)N12 (some centres undefined) | -16% | . |
| 10 | Cc1cc(C(F)(F)F)nc(SCC(=O)NC2=NC(=O)C(C)S2)n1 (centres undefined) | 1% | -0.3% |
| 13 | Cc1c(N(C)C)c(=O)n(-c2ccccc2)n1C | -1% | 1.9% |
| 16 | Nc1nc2ccc([N+](=O)[O-])cc2s1 | -17% | -0.5% |
| 18 | Cc1onc(-c2c(Cl)cccc2Cl)c1C(=O)N[C@H]1C(=O)N2[C@H]1SC(C)(C)[C@H]2C(=O)O | -1%[16.8 µM] | 1.5%[25.6 µM] |
| 23 | c1ccc2scnc2c1 | -3% | 0.8% |

High-throughput results deposited in PubChem by National Center for Advancing Translational Sciences (NCATS).
